Compound activity as filed in PubChem.
NPYLR7 agonist: mosquito NPYLR7 agonism; HEK293T NPYLR7/Galpha15, GCaMP6s calcium fluorescence; activation, % at 10 µM; actives 0.15% (n = 270,000); AID 1259423; in the data active means activation above about 40%;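 further: 0% = vehicle and 100% = reference agonist at the receptor; some compounds past the cut are filed as inactive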
NPYLR7 agonist max-min: recorded beside NPYLR7 agonist, whose call it bears; activation, %; measured here: Max-Min RFU normalised activation; some inactives read as strong as hits;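 span of the calcium signal over five minutes; 0% = vehicle and 100% = native peptide agonist; compound fluorescence can raise it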
* marks the source's active call; other numbers are inactive results; & = joins results of further samples.

SMILES	NPYLR7 agonist	NPYLR7 agonist max-min
c1cc(-c2nccn2CCc2cnc[nH]2)c2nonc2c1	6	-2
Cc1ccc(CN(C)C)c(OC(=O)N(C)C)c1	-4	-7
CC(=O)N1C[C@@H]2C[C@H](C1)c1ccc(NC(=O)c3ccco3)c(=O)n1C2	-8	-13
COC(=O)C1C(=N)Oc2cc(C)n(C)c(=O)c2C12C(=O)N(Cc1cccc(C)c1)c1ccccc12 (stereo unspecified)	9	9
C#CCN1C(=O)[C@@H]2[C@H](c3ccccc31)[C@@H](C(=O)OCC)[C@@H](c1ccccc1)N2C(C)=O	-1	5
OC1(c2ccc(Cl)cc2)C[N+]2=C(SCCC2)N1Cc1ccccc1 (stereo unspecified)	-4	-5
ClOP(Nc1ccccc1)Oc1ccccc1 (stereo unspecified)	7	9
COc1ccc(-c2nc(CC(=O)N3CCCN(Cc4cc(=O)c(OCc5cccc(OC)c5)co4)CC3)c(C)o2)cc1	2	5
CC(O)CN1CCN(C(=O)Cc2csc(C(C)(C)C)n2)CC1 (stereo unspecified)	9	8
NC(N)=Nc1ccc2[nH]c3c(c2c1)C[C@@]1(O)[C@H]2Cc4ccc(O)c5c4[C@@]1(CCN2CC1CC1)[C@H]3O5	-6	-1
CC(C)(Cc1c[nH]c2ccc(Cl)cc12)NCCOc1ccccc1OCC1CC1	-6	-8
Cn1c(NC2CCN3CCCCC23)c(C#N)c(=O)n(C)c1=O (stereo unspecified)	-3	-4
O=C(NC1CCCCCCC1)c1cn(CC2CCCO2)cc(C(=O)N2CCc3ccccc3C2)c1=O (stereo unspecified)	3	2
N#CC1(c2ccccc2)CCN(C(=O)C2CC=CCC2C(=O)NCCc2cccs2)CC1 (stereo unspecified)	0	-5
COc1cc(C(=O)OC2C[C@H]3CC[C@@H](C2)N3C)ccc1O (stereo partly specified)	-5	-7
Cc1ccc(N2C(=O)CSC23CCNCC3)cc1	6	8
COc1ccc(C2c3c(c4ccccc4oc3=O)OC(=N)C2C#N)cc1 (stereo unspecified)	-6	-10
Clc1ccc(CN2CCN(CCOC(c3ccccc3)c3ccccc3)CC2)o1	-3	5
CNC(=O)[C@@H]1[C@H]2CN(S(C)(=O)=O)CCN2C[C@H]1c1ccccc1	3	-1
Cc1[nH]c2ccccc2c1CC(=O)N1CCN(CC(F)(F)F)CC1	-14	-17
Cc1nc(C)c(CNC2(c3ccccc3)CCCCC2)s1	2	-10
CN(C)[C@@H]1C(=O)C(C(N)=O)C(=O)[C@@]2(O)C(=O)C3=C(O)c4c(O)cccc4[C@@](C)(O)[C@H]3[C@H](O)[C@@H]12 (stereo partly specified)	3&-3&-3&3	9&-11&-6&-1
C(#CCN1CCCC1)CN1CCCC1	-5	-9
C1CC2(CCN1)CC(N1CCOCC1)CO2 (stereo unspecified)	-10	-15
CN(C)P1(=S)C2=C(N3CCCCC3)CC(C)(C)CC2=NN1c1ccccc1 (stereo unspecified)	10	6

Single entries from above.
C#CCN1C(=O)[C@@H]2[C@H](c3ccccc31)[C@@H](C(=O)OCC)[C@@H](c1ccccc1)N2C(C)=O in NPYLR7 agonist max-min has 5
c1cc(-c2nccn2CCc2cnc[nH]2)c2nonc2c1 in NPYLR7 agonist max-min has -2

In the list so far, these have an aryl methoxy group.
SMILES	NPYLR7 agonist	NPYLR7 agonist max-min
COc1ccc(-c2nc(CC(=O)N3CCCN(Cc4cc(=O)c(OCc5cccc(OC)c5)co4)CC3)c(C)o2)cc1	2	5
COc1cc(C(=O)OC2C[C@H]3CC[C@@H](C2)N3C)ccc1O (stereo partly specified)	-5	-7
COc1ccc(C2c3c(c4ccccc4oc3=O)OC(=N)C2C#N)cc1 (stereo unspecified)	-6	-10

Carrying on:
SMILES	NPYLR7 agonist	NPYLR7 agonist max-min
COC(=O)C1C(=N)OC2=C(C(=O)CCC2)C12C(=O)Nc1ccc(Br)cc12 (stereo unspecified)	-4	-3
CCCCC12CN3CC(C)(CN(C1)C3(C)C)C2=O	0	0
O=C(Nc1ccon1)c1cccn(Cc2ccccc2Cl)c1=O	19	14
c1ccc(C(Cn2cnnc2)N2CCOCC2)nc1 (stereo unspecified)	1	20
Cc1cc(NC(=O)c2nn(Cc3ccc(S(=O)(=O)N(C)c4ccccc4)cc3)c3ccccc23)n(C)n1	8	18
c1ccc(-c2ncc[nH]2)cc1	7	3
CC(=O)ON1C(=O)C2C(C1=O)C1(Cl)C(Cl)=C(Cl)C2(Cl)C1(Cl)Cl (stereo unspecified)	-1	23
NC(=NCc1ccc(Cl)cc1)SCCCc1cnc[nH]1	-4	-7
C=CCN1C(=O)C2(c3ccccc31)c1oc(CO)cc(=O)c1OC(=N)C2C(=O)OCC (stereo unspecified)	4	2
CCOC(=O)[C@@H]1[C@@H](c2ccccc2)CN2CCN(C(=O)Cc3cccs3)C[C@H]12	5	9
COCc1nc(-c2cccc(CN3CCN(C(=O)Cc4ccc5c(c4)OCO5)CC3)c2)no1	2	6
COCc1nc(-c2ccc(CN3CCN(C(=O)Cc4ccc(OC)cc4)CC3)cc2)no1	4	3
CSCCCN1CCC2(CCNCC2)C1	-1	-3
COCCN1CCCC2(CCNC2)C1 (stereo unspecified)	1	-1
COc1ccc(C=C2C(=O)N(c3ccccc3)C(=S)N(c3ccccc3)C2=O)cc1OC	-14	-20
CCc1ccccc1NC(=O)c1cccn(Cc2cc(C)ccc2C)c1=O	19	15
CC(CCCC(C)(C)O)NC1CCCC(C)(C)C1 (stereo unspecified)	-1	-3
Cc1cccc(CNC(=O)C(C2CCCC2)N2CCN(C(=O)Cc3ccccc3)CC2)c1 (stereo unspecified)	-15	-10
COc1ccccc1CCNC(=O)C(C1CCCC1)N1CCN(C(=O)Cc2cccs2)CC1 (stereo unspecified)	-6	-5
NC(N)=NC(N)=NCc1cccnc1	3	17
Clc1ccc(N2CC3CCC(C2)N3)nn1	0	-25
CC(=O)N1CN2CN(C(C)=O)CC(C(=O)c3ccccc3)(C2)C1	-16	-22
Cc1ccc(C[N+]23CCN(CC2)CC3)cc1	1	14
CCOc1cc2c(cc1/C=C/[N+](=O)[O-])OCO2	6	4
CCCCCC[C@H]1C(=O)O[C@H](C)C(NC(=O)c2cccc(NC=O)c2O)C(=O)O[C@@H](C)[C@@H]1OC(=O)CC(C)C (stereo partly specified)	3	-3

Not a retest: 6 of the compounds above.
SMILES	NPYLR7 agonist	NPYLR7 agonist max-min
NC(N)=NC(N)=NCc1cccnc1	3	17
Clc1ccc(N2CC3CCC(C2)N3)nn1	0	-25
CC(=O)N1CN2CN(C(C)=O)CC(C(=O)c3ccccc3)(C2)C1	-16	-22
Cc1ccc(C[N+]23CCN(CC2)CC3)cc1	1	14
CCOc1cc2c(cc1/C=C/[N+](=O)[O-])OCO2	6	4
CCCCCC[C@H]1C(=O)O[C@H](C)C(NC(=O)c2cccc(NC=O)c2O)C(=O)O[C@@H](C)[C@@H]1OC(=O)CC(C)C (stereo partly specified)	3	-3

Compound profiles, as listed above. Values in the order: NPYLR7 agonist, NPYLR7 agonist max-min
`Cc1ccc(C[N+]23CCN(CC2)CC3)cc1` is entered as 1, 14
`CCCCCC[C@H]1C(=O)O[C@H](C)C(NC(=O)c2cccc(NC=O)c2O)C(=O)O[C@@H](C)[C@@H]1OC(=O)CC(C)C` (stereo partly specified) is entered as 3, -3
`Cc1cc(NC(=O)c2nn(Cc3ccc(S(=O)(=O)N(C)c4ccccc4)cc3)c3ccccc23)n(C)n1` is entered as 8, 18

New compounds follow.
SMILES	NPYLR7 agonist	NPYLR7 agonist max-min
O=C(CN1CCC2(CCCCCC2)C1)Nc1cccnc1	-1	-3
COCc1nc(-c2cccc(CN3CCN(C(=O)Cc4cccc(F)c4)CC3)c2)no1	-5	-8
COc1ccc(-n2c(-c3ccc(OC)cc3OC)nc3ccccc3c2=O)cc1	-3	-2
Cc1ccccc1S(=O)(=O)N1CCN(CCOC(c2ccccc2)c2ccccc2)CC1	-3	5
COc1ccc2c(c1)c(C(=O)NCCCN1CCCC1=O)nn2Cc1ccc(OCc2ccccc2)cc1	8	8
O=C(c1ccc2nnnn2c1)N1C[C@H](c2ccccc2)[C@@H]2[C@H]1C1CCN2CC1	6	4
Cc1ccsc1C(=O)C1CCCN(Cc2cnc(N3CCCC3)s2)C1 (stereo unspecified)	1	-2
O=P(NCc1ccccc1)(Oc1ccccc1)Oc1ccccc1	28	37
CSc1ncc(CN2CCCC(C(=O)c3ccc(Cl)cc3C)C2)cn1 (stereo unspecified)	-5	-5
CCOC(=O)N1CCC2(CC1)OCc1cc(-c3cccc(F)c3)ccc1O2	-2	-8
CC(Cc1ccc(O)cc1)N(C)Cc1cc(=O)n2ccccc2n1 (stereo unspecified)	-6	-6
Cn1ncnc1C(O)(C(=O)O)c1ncnn1C	4	-3
O=C1Nc2ccccc2C12CCN(CC1COc3ccccc3O1)CC2 (stereo unspecified)	5	3
Cn1nc(-c2ccccc2)c2c1N(CC(=O)NCc1ccncc1)C(=O)CSC2c1ccc2c(c1)OCO2 (stereo unspecified)	19	16
CN1[C@H]2CC[C@@H]1CN(C(=O)NC1CCCC1)CC2	21	10
CC(C)n1c(Cl)nnc1-c1ccccc1	10	4
Cc1cnc(CNC(=O)c2nn(Cc3ccc(C(=O)N(C)Cc4ccccc4)cc3)c3ccccc23)cn1	16	21
CS/C(Cl)=C(/NC(C)=O)[P+](c1ccccc1)(c1ccccc1)c1ccccc1	-1	39
CCN1C[C@]2(COC)CC[C@H](OC)[C@@]34C1[C@]1(OCO[C@@]15C[C@H](OC)[C@H]1C[C@@H]3[C@@H]5[C@H]1OC)[C@@H](O)[C@H]24	-9	-13
CN(C)C(=O)c1ccc(-c2cccc3c2CCNC3)cc1	2	1
O=C1C2CCN(CC2)C1(CO)CO	10	1
COc1ccc(-n2nc(-c3ccccc3)c3c2N(CC(=O)NC2CC2)C(=O)CSC3c2ccccc2Cl)cc1 (stereo unspecified)	13	14
CCC(C)NC(=O)CN1C(=O)CSC(c2cccc(F)c2)c2c(C(C)(C)C)nn(-c3cccc(C)c3)c21 (stereo unspecified)	18	27
COCc1nc(-c2ccc(CN3CCN(C(=O)Cc4ccccc4C)CC3)cc2)no1	4	10
c1ccc2c(c1)sc1ccccc12	-12	-17

Other compounds follow:
SMILES	NPYLR7 agonist	NPYLR7 agonist max-min
O=C1NC2(CCNCC2)Nc2cc(Cl)ccc21	13	10
CN1CCN2CCN(c3ncc(C(F)(F)F)cc3Cl)CC2C1 (stereo unspecified)	-4	-4
O=P(C=C(Cl)c1ccccc1)(C=C(Cl)c1ccccc1)NC1CCCCC1	-5	-6
C=CCOc1ccc(C=C(C#N)C#N)cc1	1	0
COc1ccc2c(c1)[C@@]13CCCC[C@H]1[C@@H](C2)NCC3	2	-21
COc1cccc([C@@H]2CCN(Cc3ccc(OC)cc3F)C[C@H]2O)c1	8	7
C1=C(c2ccccc2)CCNC1	5	4
CCCN(C/C=C/I)C1CCc2ccc(O)cc2C1 (stereo unspecified)	4	-7
CC(C)CN(Cc1cc(NC(=O)c2ccco2)ccc1N(C)C1CCN(C)CC1)C(=O)c1ccc(F)cc1	-2	1
COc1cc2c(cc1OC)CN(C1CCCN(C(=O)COc3ccc(Cl)cc3)C1)CC2 (stereo unspecified)	27	38
CC(C)c1nccc(CN2CCC3(CC2)C(=O)N(C)c2ccccc23)n1	2	-2
Cc1cc(C(=O)O)c(C)n1C(C)C	1	-1
COCCn1c(C)cc2c(c1=O)C1(C(=O)N(C)c3ccccc31)C(C(=O)OC)C(=N)O2 (stereo unspecified)	0	-3

Only part of the results is shown; rates above refer to the full screens.
